# GPR55 beta-arrestin = selective activators of receptor GPR55 – imaging, U2OS cells, beta-arrestin-GFP redistribution, primary screen (AID 1961); U2OS GPR55 beta-arrestin-GFP redistribution imaging; higher % means a stronger effect; activation, % at 10 µM; hits with a dose series show EC50 in µM; actives 0.048% (n = 290,000);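 active = activation above 40% with more than 50 cells counted in the well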;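 also: U2OS osteosarcoma cells stably expressing GPR55 and beta-arrestin-GFP; plate controls were DMSO negative control for no effect and LPI positive control for full effect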
# SIAH1 antagonists = Siah-1 peptide-binding antagonists, primary screen, biochemical, fluorescence polarization, rhodamine-plectin, uHTS (AID 1817) | actives 0.02% (n = 290,000) | displacement, % at 20 µM, or IC50 in µM where a hit was titrated | Siah-1 / rhodamine-plectin peptide fluorescence polarization; higher % means a stronger effect;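 active = displacement of at least 50% at 20 µM, with a fluorescence ratio check between 0.3 and a set limit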;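 also: plate controls were Siah plus tracer with DMSO for no effect and tracer alone without Siah for full effect; strong numbers were not always called active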
# AID2073 = disruptors of CaV2.2 binding to Mint1 – biochemical, HTRF (AID 2073). HTRF protein-protein interaction, Mint1-CaV2.2; higher % means a stronger effect. inhibition, % at 20 µM, or IC50 in µM where a hit was titrated. actives 0.19% (n = 290,000); in the data active = inhibition mostly above about 51%, no sharp cut-off; also: some results filed as inactive read as strong as hits
# GPR55 antagonists = inhibition of LPI-stimulated GPR55 beta-arrestin translocation – imaging, U2OS, beta-arrestin-GFP, LPI agonist, primary screen (AID 2013); U2OS GPR55 beta-arrestin-GFP translocation imaging, LPI antagonism; higher % means a stronger effect; inhibition, % at 10 µM; hits with a dose series show IC50 in µM; actives 0.13% (n = 290,000);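 active = spots per cell inhibited over 60%, with over 100 cells counted and total cytoplasm intensity under 500,000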;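 also: U2OS cells stably carrying GPR55 and arrestin-GFP stimulated by 5 µM LPI near EC80; imaged beta-arrestin-GFP aggregate spots per cell after agonist stimulation; plate controls were LPI-stimulated DMSO wells for no effect and DMSO wells without LPI for full effect; some results filed as inactive read as strong as hits; confirmed hits need IC50 under 10 µM and bright autofluorescent wells are also inconclusive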
# GPR35 arrestin U2OS = inhibition of zaprinast-stimulated GPR35 beta-arrestin translocation – imaging, U2OS, beta-arrestin-GFP, zaprinast agonist, primary screen (AID 2058) | U2OS GPR35 beta-arrestin-GFP translocation imaging, zaprinast antagonism; higher % means a stronger effect | inhibition, % at 10 µM; hits with a dose series show IC50 in µM | actives 0.052% (n = 290,000);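 active = inhibition of at least 50% with at least 30 cells and total cytoplasm GFP at most 10,000,000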
# * marks the source's active call; other numbers are inactive results; / = no result given. Not all compounds are listed (hit frequency here may not be typical).
SMILES,GPR55 beta-arrestin,SIAH1 antagonists,AID2073,GPR55 antagonists,GPR35 arrestin U2OS
Cc1cccc(-n2c(/C=C/c3ccc([N+](=O)[O-])o3)nc3ccccc3c2=O)c1,0.0%,11%,42%,-3%,3%
O=C(c1ccc(Cl)cc1)C1CCCN(Cc2cccc3ncccc23)C1 (stereo not given),0.0%,-4%,-12%,-24%,-6%
O=c1[nH]c2ccccc2n1CCCN1CCC(n2c(=O)[nH]c3cc(Cl)ccc32)CC1,1.2%,6%,1%,1%,-14%
CCOC(=O)N(c1ccccc1)P1(=S)OCC(C)O1 (stereo not given),-0.1%,0%,-8%,28%,2%
COc1ccc(C(=O)N2CCCC2=O)cc1,-0.1%,3%,-8%,3%,-13%
Cc1cccc(NC(N)=S)c1,-0.1%,6%,-6%,-7%,15%
CC(C)[N+]12CCC(CC1)C(C(O)(c1ccccc1)c1ccccc1)C2 (stereo not given),0.0%,9%,-8%,8%,-2%
CN1CCN(c2nc(N(C)C)oc(=O)c2C#N)CC1,-0.1%,4%,8%,3%,1%
CCN1CCN(c2nc3ccccc3s2)CC1,0.0%,1%,4%,/,11%
O=C(Cn1cnc2sc3c(c2c1=O)CCCC3)NCCC(=O)N1CCC2(CC1)OCCO2,-0.1%,-1%,15%,1%,15%

# Three of these compounds in another layout:
Molecule	GPR55 beta-arrestin	SIAH1 antagonists	AID2073	GPR55 antagonists	GPR35 arrestin U2OS
CC(C)[N+]12CCC(CC1)C(C(O)(c1ccccc1)c1ccccc1)C2 (stereo not given)	0.0%	9%	-8%	8%	-2%
CN1CCN(c2nc(N(C)C)oc(=O)c2C#N)CC1	-0.1%	4%	8%	3%	1%
CCN1CCN(c2nc3ccccc3s2)CC1	0.0%	1%	4%	/	11%

# Full records, looked up by structure.
# `CCN1CCN(c2nc3ccccc3s2)CC1` in the list: GPR55 beta-arrestin = 0.0%; SIAH1 antagonists = 1%; AID2073 = 4%; GPR55 antagonists = /; GPR35 arrestin U2OS = 11%
# `CC(C)[N+]12CCC(CC1)C(C(O)(c1ccccc1)c1ccccc1)C2` (stereo not given) in the list: GPR55 beta-arrestin = 0.0%; SIAH1 antagonists = 9%; AID2073 = -8%; GPR55 antagonists = 8%; GPR35 arrestin U2OS = -2%

# Filtered by structure, those above containing a Cl atom
SMILES,GPR55 beta-arrestin,SIAH1 antagonists,AID2073,GPR55 antagonists,GPR35 arrestin U2OS
O=C(c1ccc(Cl)cc1)C1CCCN(Cc2cccc3ncccc23)C1 (stereo not given),0.0%,-4%,-12%,-24%,-6%
O=c1[nH]c2ccccc2n1CCCN1CCC(n2c(=O)[nH]c3cc(Cl)ccc32)CC1,1.2%,6%,1%,1%,-14%

# Compound activity from PubChem.
